# Screening results deposited in PubChem BioAssay by National Center for Advancing Translational Sciences (NCATS).
# HPGD block: HPGD (human) dehydrogenase inhibition | purified HPGD, NADH fluorescence kinetic, PGE2 substrate | Potency, µM, for inactives: at the highest dose activity change, negative = inhibition, actives largely listed as inhibitors | actives 4.3% (n = 150,000) | AID 894; active = well fitted inhibition curve with a large enough effect (not every such curve was filed as active); inconclusive = small, poorly fitted or top-dose-only effect, or another doubt; inactive = no such curve, though single readings can be large or run the other way;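 further: top concentration of the series not given in the record; plate controls included wells without enzyme; inactives centre near -10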
# Target sequence (P15428 whole entry, looked up): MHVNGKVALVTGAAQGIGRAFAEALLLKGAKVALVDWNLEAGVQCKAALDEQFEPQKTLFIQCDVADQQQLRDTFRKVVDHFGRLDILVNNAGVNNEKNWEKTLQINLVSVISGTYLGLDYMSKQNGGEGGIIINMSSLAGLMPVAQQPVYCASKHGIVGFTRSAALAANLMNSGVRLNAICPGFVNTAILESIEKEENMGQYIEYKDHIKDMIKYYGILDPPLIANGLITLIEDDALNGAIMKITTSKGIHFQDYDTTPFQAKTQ
#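 NADH formation kinetics: reaction with 30 uM PGE2 and 1 mM NAD+ (final), 20 nM enzyme, Tris-HCl pH 8 with Tween 20, after 15 min compound preincubation at room temperature. Fluorescence change, last versus first of five reads.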
# * hit, by the source's call; u = inconclusive; & = joins results of further samples; [ ] = another dose, or the depositor's remark. On the % scale 0 is the no-effect control and ±100 the full control effect; potency means the concentration at half of the fitted maximal effect. An excerpt (hit frequency here may not be typical).
SMILES,HPGD block
CCc1nc2oc3cc(OC)ccc3c(=O)c2c(=O)n1Cc1ccccc1,-27%
Cc1ccc(C23CC4CC(CC(C(=O)N5CCOCC5)(C4)C2)C3)cc1,2%
C=CCC(CC=C)(NC(=O)c1cccc(C)c1)c1ccccc1,-9%
O=C(Nc1ccccc1N1CCCC1)c1ccc(Br)o1,-6%
O=C(CSc1nc(Nc2ccccc2)nc(N2CCOCC2)n1)N1CCCC1,-10%
Clc1cccc(CSc2nc3ccncc3[nH]2)c1,-3%
C#CC[N+](C)(C)C(C#Cc1ccccc1)CC=C (stereo not drawn),-6%
CCN(CC)C(=O)c1c(NC(=O)c2ccccc2)sc(C)c1C,-11%
O=C(CSCc1ccccc1)N1CCN(c2cccc(C(F)(F)F)c2)CC1,-24%
O=C(NCc1ccco1)C1CCCN(S(=O)(=O)c2ccccc2)C1 (stereo not drawn),-8%
COc1cc(C(=O)N/N=C\c2ccccc2)c([N+](=O)[O-])c(OC)c1OC,-14%
COc1ccc(NC(=O)/C(C#N)=C\c2cc(C)n(-c3ccc4c(c3)OCO4)c2C)cc1,-16%
CCC(=O)Nc1nc2nc(C)cc(=O)n2[nH]1,-12%
Cc1ccc2nc(SCc3cn4c(C)cc(C)nc4n3)[nH]c2c1,-7%
COc1ccc(NC(=O)C2CCN(c3cc(-c4ccccc4)nc4ncnn34)CC2)cc1OC,-15%
O=c1c(-c2ccc3c(c2)OCCO3)coc2cc(O)cc(O)c12,28µM*
Cc1ccc(S(=O)(=O)N2CCC(=O)N(C(CO)C(C)C)CC2)cc1 (stereo not drawn),-8%
CCOc1ccc(C(=S)N2CCOCC2)cc1OCC,u
Cc1ccc(N2CCN(C(=O)c3ccccc3)CC2)c(C)c1,4%
O=c1c2c(n3cnnc3n1-c1ccccc1)-c1ccccc1CC21CCCCC1,-17%
Cc1ccc(-c2noc(CCCC(=O)N3CCOCC3)n2)cc1,-5%
CC(Oc1cc(-c2ccccc2)cc2ccccc12)C(=O)N1CCOCC1 (stereo not drawn),-23%
CCOC(=O)C1CCN(C(=O)COc2ccc(Br)cc2)CC1,0%
N#C/C(=C/c1ccccc1[N+](=O)[O-])c1nc(C2CC2)cs1,u
O=C1NC2(CCOc3ccccc32)C(=O)N1CC(=O)N(Cc1ccccc1)C1CCS(=O)(=O)C1 (stereo not drawn),2%
CCOC(=O)CSc1nc(C)cc(=O)[nH]1,-8%
CCOC(=O)CN(C(=O)CSc1nnc2c(n1)[nH]c1ccccc12)c1ccccc1,-12%
Fc1ccc(COc2ccccc2C(=S)N2CCCC2)cc1,8.9µM*
Cc1ccccc1-n1ncc2c(SCC(=O)N3c4ccccc4CC3C)ncnc21 (stereo not drawn),3%
COc1ccc(C2OCC3(COC(C)=O)C(C)C=C(C)C2C3C)cc1 (stereo not drawn),-2%
O=C(O)CSC1=NC(=Nc2ccc(Cl)cc2)C2(CCCCC2)N1c1cccc(C(=O)O)c1,-11%
Nc1nc2ncc(=O)[nH]c2c(=O)[nH]1,u
FC(F)(F)c1cc(-c2ccco2)nc(N2CCN(Cc3ccccc3)CC2)n1,-19%
CN(C)CCCC(C)(O)C(Cc1ccccc1)c1ccccc1 (stereo not drawn),0%
Cn1c(CSCc2ccccc2)n[nH]c1=S,-6%
COC(=O)N1CCC2(CCCN(c3cccc(-c4ccccc4)c3)C2)CC1,-22%
CS(=O)CCC(NS(=O)(=O)c1ccccc1)C(=O)O (stereo not drawn),-13%
CCc1ccc(-c2nc(CN3CCC(C(=O)N4CCN(c5ccccc5)CC4)CC3)c(C)o2)cc1,-9%
COc1ccc(CNc2nc3nc(C)cc(C)n3n2)cc1,-10%
N#CC1=C(C2CC2)CC(c2ccccc2)C(C#N)=C1N (stereo not drawn),-16%
O=C(Nc1ccccc1)c1ccc(Br)o1,-26%&-9%
CC(=O)OC1C(=O)[C@@]2(C)C(O)CC3OC[C@]3(OC(C)=O)C2C(OC(=O)c2ccccc2)[C@]2(O)CC(OC(=O)C(O)C(NC(=O)c3ccccc3)c3ccccc3)C(C)=C1C2(C)C (stereo partly drawn),-9%
CC(=O)OCCc1c(C)nc2nc[nH]n2c1=O,-9%
COc1ccc(/C=N/NC(=O)CCCOc2ccc(Cl)cc2Cl)cc1,-25%
COc1cc(C)nc(N2CCCC(C(=O)NC3CCC(C)CC3)C2)n1 (stereo not drawn),-13%
Cc1csc(NC(=O)C(F)(F)F)n1,-10%
CS(=O)(=O)N(CC(=O)N1CCCC1)c1cc(Cl)c(Cl)cc1Cl,4%
Cc1ccccc1NC(=O)COC(=O)/C=C/c1cccc(C(F)(F)F)c1,-9%
O=C(NC1CCCC1)C(c1ccc(F)cc1)N(Cc1ccccc1Cl)C(=O)CCl (stereo not drawn),-11%
O=C(O)C1=C[C@@H](O)[C@@H](O)[C@H](O)C1,-3%
Cc1ccc(C)c(N2C(=O)CS/C2=N\NC(=O)c2ccccc2Cl)c1,-4%
Cc1ccc(S(=O)(=O)N2CCN(C(C)C(=O)N3CCCc4ccccc43)CC2)cc1 (stereo not drawn),-6%
CCCOCCOC(=O)c1[nH]c2c(c1C)C(=O)CC(c1cc(OC)ccc1OC)C2 (stereo not drawn),-10%
COc1ccccc1-c1nnc2sc(-c3cnccn3)nn12,25µM*
CN1CC(=O)N=C1N,-3%
C(=C/c1ccccc1)/c1ccccc1,-1%
COc1cc(C(=O)N2CCC(O)(c3ccccc3)CC2)cc(OC)c1OC,-3%
O=C(Nc1ccc2c(c1)OCO2)N1CCN(C(=O)C2CCCO2)CC1 (stereo not drawn),-12%
Cn1c(-c2ccc(F)cc2)cnc1NCc1cccc(F)c1,16µM*
O=[N+]([O-])c1ccc(N2CCN(c3ccc(O)cc3)CC2)c(Cl)c1,-27%
# Remaining list, next part:
SMILES,HPGD block
Cc1cccc(N2CCN(C(=O)Cc3cn(C)c4ccccc34)CC2)c1C,-29%
N#Cc1cccc(-c2nc(Nc3ccncc3)c3ccccc3n2)c1,u
Cc1ccc(S(=O)(=O)NCc2c(-c3ccccc3)c3cc(Cl)ccc3[nH]c2=O)cc1,2%
Cc1ccc(/C=C/C(=O)c2c(C)cc(C)[nH]c2=O)cc1,-14%
COc1cccc(C2=NOC(C(=O)N3CCN(Cc4ccccc4)CC3)C2)c1OC (stereo not drawn),-1%
CCC(=O)N1CCc2cc(Br)cc(S(=O)(=O)CCC(=O)NCC3CCCO3)c21 (stereo not drawn),-1%
Cc1[nH]nc(N=CC2=C(O)CC(c3ccco3)CC2=O)c1-c1ccc(Cl)cc1 (stereo not drawn),-12%
CN(C(=O)CSc1ccccc1C(=O)O)C1CCCCC1,-6%
O=C(Nc1nnc(-c2cccs2)o1)c1cc(-c2ccccc2)nc2ccccc12,-8%
CC1CC(N(C(=O)c2ccco2)c2ccccc2)c2ccccc2N1C(=O)c1ccco1 (stereo not drawn),-1%
COCCCNC(=O)CCc1nc2cccnc2n1Cc1ccc(OC)cc1,-6%
COc1ccc(CNC(=O)CCNS(=O)(=O)c2ccc(C)cc2)cc1,-4%
CCCCC/C=C\C/C=C\C/C=C\C/C=C\CCCC(=O)C(F)(F)F,-4%
Cc1cccc(NCN2C(=O)C3C4C=CC(C4)C3C2=O)c1 (stereo not drawn),-1%
CC(=O)Nc1ccccc1/C=C/c1ccc2c(C)cc(C)c(O)c2n1,-9%
COc1ccc(C(=O)Nc2ccc(Cl)cc2C(=O)N2CCCC(C)C2)cc1 (stereo not drawn),-9%
CCN(c1ccc(NC(=O)COC(=O)c2cccs2)cc1)C(C)C,-8%
CCOC(=S)SCC(=O)O,-7%
CCOc1ccccc1-c1nc(-c2ccc(NC(=O)Cc3ccccc3OC)cc2)no1,-17%
Cc1nc2cc(CO)ccc2s1,-5%

# Given with bars between the fields: entries from further up
SMILES | HPGD block
Cc1[nH]nc(N=CC2=C(O)CC(c3ccco3)CC2=O)c1-c1ccc(Cl)cc1 (stereo not drawn) | -12%
COc1ccc(C(=O)Nc2ccc(Cl)cc2C(=O)N2CCCC(C)C2)cc1 (stereo not drawn) | -9%
CCOc1ccccc1-c1nc(-c2ccc(NC(=O)Cc3ccccc3OC)cc2)no1 | -17%

# Remaining list, next part:
SMILES,HPGD block
CCOc1ccccc1NC(=O)C1CCCN(S(=O)(=O)c2cccc3nsnc23)C1 (stereo not drawn),-27%
COCc1cc(/C=N\NC(=O)c2ccc(Cl)cc2)ccc1OC,-12%
Cc1cccc(-c2oc(C)c(C)[n+]2[O-])c1,-12%
Cc1ccc2cccc(S(=O)(=O)Nc3c(C)n(C)n(-c4ccccc4)c3=O)c2n1,-9%
Cc1nnsc1NC(=O)OCc1ccc(C(C)(C)C)cc1,-1%
CC(=O)Nc1ccc(N(CC(O)Cn2c3ccccc3c3ccccc32)S(=O)(=O)c2ccc(C)cc2)cc1 (stereo not drawn),229%[activator]
CC(CCl)OC(C)CCl (stereo not drawn),-22%
O=C(N=NC(=O)c1ccco1)c1ccc2c(O)n(N3C(=O)c4ccccc4C3=O)c(O)c2c1,-13%
Cc1ccc(C)c(-c2nnc(OCC(=O)Nc3cc(C)on3)c3ccccc23)c1,-14%
CN1CCN(CCCCC(=O)c2ccccc2)CC1,2%
O=C(Nc1nnc(CCc2ccccc2)s1)c1ccco1,u
Cc1cc(OCC(=O)N2CCOCC2)ccc1NC(=O)C1CCCCC1,-3%
CCc1c(C)nc2cc(-c3ccc(OC)cc3)[nH]n2c1=O,u
COc1ccc(/C=N/NC(=O)/C(=C/c2ccccc2)CCO)cc1,-11%
CCCC1Cc2c(sc3ncnc(N)c23)CO1 (stereo not drawn),-15%
COc1ccc(C(=O)NCCn2ccc3ccccc32)c(OC)c1,u
C=CCn1c(SCC(=O)Nc2cc(C)ccc2C)nnc1-c1cnccn1,-9%
Cc1nc(C)c(-c2csc(NCc3ccccc3)n2)s1,u
COc1ccc(C2C(C(=O)NCc3ccco3)CCC(=O)N2c2ccc(OC)cc2)cc1 (stereo not drawn),3%
COc1ccc(O)c(C=Nc2cc(C)on2)c1,-12%

# 2 records picked at random from those above:
SMILES,HPGD block
COc1ccc(C(=O)NCCn2ccc3ccccc32)c(OC)c1,u
O=C(Nc1nnc(CCc2ccccc2)s1)c1ccco1,u

# More structures
SMILES,HPGD block
CCOC(=O)c1ccc(NS(=O)(=O)c2cc(-c3nnnn3CC)ccc2OC)cc1,4%
COc1ccc(C(=O)N2CCC3(CCN(C(=O)Nc4cccc(C#N)c4)CC3)CC2)cc1,-5%
COc1cccc(/C=N/NC(=O)C(=O)NCc2ccco2)c1OC,-12%
Cc1ccc(C(=O)O)cc1NC(=S)NC(=O)Cc1ccccc1,-14%
CC1Cc2ccccc2N1C(=O)CSc1nnc(-c2ccc(S(=O)(=O)N3CCCC3)cc2)o1 (stereo not drawn),-6%
Cc1ccc(OC(=O)c2ccc3snnc3c2)cc1,-7%
CCCCc1cc2c(cn1)=C(OC(=O)C1CCCC1)C(C)(OC(=O)CC)C(=O)C=2 (stereo not drawn),-3%
O=S(=O)(NCc1cn2ccccc2n1)c1cc(F)ccc1F,-11%
CCOC(=O)c1cnn(-c2nc(OCC)cc(OCC)n2)c1C,1%
CN(CC(=O)O)Cc1c[nH]c2ccccc12,-2%
O=C1C=C(O)c2ccccc2C1=O,u
Cc1cc(Nc2ccccc2)nc(NCc2ccccc2)n1,-31%
O=C(O)[C@@H]1CS[C@@]2(CCCN(Cc3ccccc3)C2)N1,1%
Cc1ccc(N2C(N)=C(C#N)C(c3ccsc3)C3=C2CC(C)(C)CC3=O)cc1 (stereo not drawn),-13%
COC(=O)c1c(-c2cccs2)csc1NC(=O)CN1CCOCC1,-14%
O=C(COC(=O)C1CC1)Nc1ccc(OC(F)F)cc1,-8%
O=C(Cn1nnc2ccccc2c1=O)NC1CCCc2ccccc21 (stereo not drawn),-8%
C=CCN(c1ccccc1)S(=O)(=O)c1cccc(C(=O)O)c1,-6%
CN(c1ccc(C(=O)NCc2ccncc2)cc1)S(C)(=O)=O,-14%
Cn1cccc1C(=O)NS(=O)(=O)c1ccccc1Cl,-10%

# Grouped by structure: the entries above with a cyano group.
SMILES,HPGD block
COc1ccc(NC(=O)/C(C#N)=C\c2cc(C)n(-c3ccc4c(c3)OCO4)c2C)cc1,-16%
N#C/C(=C/c1ccccc1[N+](=O)[O-])c1nc(C2CC2)cs1,u
N#CC1=C(C2CC2)CC(c2ccccc2)C(C#N)=C1N (stereo not drawn),-16%
N#Cc1cccc(-c2nc(Nc3ccncc3)c3ccccc3n2)c1,u
COc1ccc(C(=O)N2CCC3(CCN(C(=O)Nc4cccc(C#N)c4)CC3)CC2)cc1,-5%
Cc1ccc(N2C(N)=C(C#N)C(c3ccsc3)C3=C2CC(C)(C)CC3=O)cc1 (stereo not drawn),-13%

# Shown bar-delimited: part of the list above
canonical_smiles | HPGD block
Cc1csc(NC(=O)C(F)(F)F)n1 | -10%
CS(=O)(=O)N(CC(=O)N1CCCC1)c1cc(Cl)c(Cl)cc1Cl | 4%
Cc1ccccc1NC(=O)COC(=O)/C=C/c1cccc(C(F)(F)F)c1 | -9%
O=C(NC1CCCC1)C(c1ccc(F)cc1)N(Cc1ccccc1Cl)C(=O)CCl (stereo not drawn) | -11%
O=C(O)C1=C[C@@H](O)[C@@H](O)[C@H](O)C1 | -3%
Cc1ccc(C)c(N2C(=O)CS/C2=N\NC(=O)c2ccccc2Cl)c1 | -4%
Cc1ccc(S(=O)(=O)N2CCN(C(C)C(=O)N3CCCc4ccccc43)CC2)cc1 (stereo not drawn) | -6%

# More structures follow:
SMILES,HPGD block
COC(=O)[C@@]1(Cc2ccc(OC)cc2)[C@H]2c3cc(C(=O)N(C)C)n(Cc4ccc(OC(F)(F)F)cc4)c3C[C@H]2CN1C(=O)c1ccccc1,-18%&-9%
Oc1ccc(-c2nc3ncccn3c2Nc2ccc3c(c2)OCCO3)cc1,-14%
COCC(C)n1c(C)cc(C(=O)CSc2nnc(Nc3ccccc3F)s2)c1C (stereo not drawn),4%
COc1ccc(NC(=O)c2ccccc2NC(=O)COc2ccccc2)cc1,-20%
